TAR Tat displ: TAR RNA-Tat peptide displacers, HIV-1, primary screen, biochemical, FRET, FAM/TAMRA-labeled Tat; HIV-1 TAR RNA, Tat peptide displacement FRET; hits give high values; z-score (test concentration not listed); hit rate 0.6% among 100,000; AID 1259389, 2018;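 further: score is relative to mean and SD of negative controls; some compounds called inactive have numbers as strong as hits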
CDC25B CDK2 inh: primary biochemical HTRF screen for blockers of M-phase inducer phosphatase 2 binding to CDK2/cyclin A. z-score (concentration not given with the values). P30305+P24941. hit rate 0.72% among 94,000. HTRF CDC25B-CDK2/CyclinA binding, anti-His/anti-Flag; hits give high values;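 further: score is relative to mean and SD of negative controls; strong numbers were not always called active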
* marks the source's active call; other numbers are inactive results; / = no result given.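 How the source made its calls: active means z-score from 3 up in half or more of its runs; inactive means the rest.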

SMILES	TAR Tat displ	CDC25B CDK2 inh
Cc1csc2nc(COc3ccc(NC(=O)c4ccco4)cc3)cc(=O)n12	-0.63	1.26
CN(C)C(CNC(=O)c1sc2ccccc2c1Cl)c1ccco1 (stereo not drawn)	-0.5	-1.83
Cc1c(C=O)c(=O)oc2c3c4c(cc12)CCCN4CCC3	/	16.4*
Cc1ccc(C(=O)N2CCc3cc4ccccc4nc32)cc1C	1.15	-2.56
O=C(Nc1sc2c(c1C(=O)NCc1ccco1)CCCC2)c1csnn1	0.46	0.49
O=c1ccc(-c2ccc(S(=O)(=O)Nc3ccc(Oc4ccc(Cl)cc4)cc3)s2)n[nH]1	2.55	/
CCCCC(CC)CNC(=O)C1CCCN(S(=O)(=O)c2cnc[nH]2)C1 (stereo not drawn)	0.43	-0.34
CC(C)CC(=O)Nc1ccc2nc(SCC(=O)N(C)c3ccccc3)sc2c1	1.75	-1.92
Cn1c(=O)c2c(nc(CN3CCCCC3)n2CCCO)n(C)c1=O	/	-0.51
c1ccc2cc3sccc3cc2c1	/	-2.14

Random excerpt: 4 entries already listed, in no set order.
SMILES	TAR Tat displ	CDC25B CDK2 inh
Cc1ccc(C(=O)N2CCc3cc4ccccc4nc32)cc1C	1.15	-2.56
c1ccc2cc3sccc3cc2c1	/	-2.14
Cn1c(=O)c2c(nc(CN3CCCCC3)n2CCCO)n(C)c1=O	/	-0.51
O=C(Nc1sc2c(c1C(=O)NCc1ccco1)CCCC2)c1csnn1	0.46	0.49

Next compounds:
SMILES	TAR Tat displ	CDC25B CDK2 inh
Cn1ccc2cc(S(=O)(=O)N3CCCC(C(=O)N4CCOCC4)C3)ccc21 (stereo not drawn)	1.07	/
CCC(=O)N1CCc2cc(S(=O)(=O)NC(C(=O)NCc3ccco3)C(C)C)ccc21 (stereo not drawn)	/	-1.3
CCC(C)NC(=O)c1cnn2c(C(F)(F)F)cc(-c3cccs3)nc12 (stereo not drawn)	0.67	/
Cc1ccc2oc(SCC(=O)Nc3ccc(F)cc3F)nc2n1	0.63	/
COc1ccc(C2CC(c3ccccc3Cl)n3nnnc3N2)cc1 (stereo not drawn)	1.72	/
CCCCc1nc2sc3c(N4CCOCC4)ncnc3c2c2c1COC(C)(C)C2	-0.08	0.1
CCCCN1C(=O)c2cc(C(=O)NC3CCCC3)nn2CC1(C)C(=O)NC1CCCC1 (stereo not drawn)	-0.53	/
COc1ccccc1NS(=O)(=O)c1ccc2c(c1)[C@H]1C=CC[C@H]1[C@@H](c1ccccc1Cl)N2	-1.22	0.26
O=C(C1CC1)N1CCc2cc(S(=O)(=O)NCCCN3CCN(c4ccccc4F)CC3)ccc21	/	-2.51
CCc1cc(=O)oc2c(C)c(OCC(=O)OC(C)C)ccc12	/	-0.74
CCc1nn2c(=O)cc(CSc3ccccc3NC(=O)C(C)C)nc2s1	-0.62	/
Cc1ccc(NS(=O)(=O)c2ccc(CCN3C(=O)c4cccnc4C3=O)cc2)nc1	-0.75	/
CCCCN(CC)CC(=O)Nc1cc(C)c2c(=O)oc3ccccc3c2n1	-0.71	-3.22
COC(=O)c1cc(S(=O)(=O)NCCN2CCOCC2)cn1C	1.66	/
CCOc1cc(C2C(C#N)=C(N)OC3=C2C(=O)CC(C)(C)C3)ccc1OC (stereo not drawn)	/	-0.6
Cc1[nH]nc2c1C(c1ccc(C(C)(C)C)cc1)NC2=O (stereo not drawn)	0.73	-0.66
CCN1CCCC1CNC(=O)Cn1nc(C)n2c(cc3cc(F)ccc32)c1=O (stereo not drawn)	-0.12	-1.14
O=C(CO/N=C/c1ccc(Cl)cc1Cl)NNC(=S)Nc1cc(Cl)ccc1Cl	/	-0.67
CCCCc1ccc(NS(=O)(=O)c2cc3c4c(c2)CC(=O)N4CCC3)cc1	1.08	/
Cc1[nH]c2ccc(Br)cc2c(=O)c1CN1CCCC(C)C1 (stereo not drawn)	/	0.13
COc1ccc(Nc2nc3ccccc3n3c(N)nnc23)cc1	0.27	-0.27
Cc1cc(C)n(-c2ccc3cccc(N)c3n2)n1	0.3	-10.1
CCSc1nc(-c2cccc(Cl)c2)nc2c1Cc1c(CO)cnc(C)c1O2	0.97	/
CCNc1oc(COc2ccc(OC)cc2)nc1C#N	1.03	0.36
O=C(NCc1ccccc1)C1CCC(C(=O)NCc2ccccc2)N1 (stereo not drawn)	/	-3.17
COc1ccc(NC(=O)C2=Cc3sc4c(c3CS2)CCCC4)cc1	-0.75	/
CCc1ccc(CN(C(=O)c2oc3ccccc3c2C)C2CCS(=O)(=O)C2)cc1 (stereo not drawn)	0.5	-1.4
CCc1c(C)nc(Nc2nc(C)c3cc(C)c(C)cc3n2)[nH]c1=O	-2.53	0.3
Nc1ccc(C(F)(F)F)cc1N	/	-3.46
CCOCCCNc1nc2c(S(=O)(=O)c3ccc(C(C)C)cc3)nnn2c2ccsc12	-0.28	/

One compound at a time, from the list above. Order of screens: TAR Tat displ, CDC25B CDK2 inh
CCc1ccc(CN(C(=O)c2oc3ccccc3c2C)C2CCS(=O)(=O)C2)cc1 (stereo not drawn) is listed as 0.5, -1.4
CCSc1nc(-c2cccc(Cl)c2)nc2c1Cc1c(CO)cnc(C)c1O2 is listed as 0.97, /
Nc1ccc(C(F)(F)F)cc1N is listed as /, -3.46

(listing goes on)
SMILES	TAR Tat displ	CDC25B CDK2 inh
CCN1CCc2c(sc(-n3cccc3)c2CNC(=O)NCc2ccc(C)cc2)C1	-7.54	/
COc1ccc(NS(=O)(=O)c2ccc(OC)c(OC)c2)cc1	0.72	-1.54
CC(=O)Nc1c2n(c3ccc(F)cc13)CC(C)(C(=O)NC1CCCC1)N(C1CCC(C)CC1)C2=O (stereo not drawn)	-1.05	/
CSc1cccc(-n2cc(-c3ccc4c(c3)OCO4)[nH]c2=O)c1	/	0.57
NCc1nc2cccnc2n1Cc1ccccc1	1.16	-0.39
CCOC(=O)c1cn(CC)c2cc(N3CCCCC3)c(F)cc2c1=O	-0.48	-0.59
CCOc1ccc2nc(NC(=O)c3cc(=O)c4ccccc4o3)sc2c1	2.67	0.23
O=c1c(Nc2ccc(Cl)cc2)c(-c2ccccc2)c1=O	1.51	/
O=C(Nc1ccc(Cc2ccncc2)cc1)c1nc(-n2cnnc2)ccc1Br	1.21	/
CS(=O)(=O)c1ccc(-c2ccc(NC(=O)CC(c3ccccc3)c3ccccc3)cc2)nn1	0.1	/

As entered above.
Entry for CSc1cccc(-n2cc(-c3ccc4c(c3)OCO4)[nH]c2=O)c1 in CDC25B CDK2 inh: 0.57
Entry for CCN1CCc2c(sc(-n3cccc3)c2CNC(=O)NCc2ccc(C)cc2)C1 in TAR Tat displ: -7.54
Entry for O=C(Nc1ccc(Cc2ccncc2)cc1)c1nc(-n2cnnc2)ccc1Br in TAR Tat displ: 1.21
Entry for O=c1c(Nc2ccc(Cl)cc2)c(-c2ccccc2)c1=O in TAR Tat displ: 1.51
Entry for NCc1nc2cccnc2n1Cc1ccccc1 in TAR Tat displ: 1.16

The list goes on:
SMILES	TAR Tat displ	CDC25B CDK2 inh
CCCCN(CCCC)S(=O)(=O)c1ccc2c(c1)NC(=O)C(C)S2 (stereo not drawn)	2.08	/
CC(=O)Oc1ccc2c3c(c(=O)oc2c1OC(C)=O)CCCC3	/	-4.2
Cn1c(=O)cc(SCC(=O)N2CCN(Cc3ccc4c(c3)OCO4)CC2)c2ccc(Cl)cc21	1.51	-1.49
CNC(=S)NNC(=O)C(C)Oc1ccc(Cl)cc1 (stereo not drawn)	/	-1.48
O=C(Nc1ccc(-c2nc3ccccc3s2)cc1)Nc1cc(F)cc2c1OCOC2	/	-0.36
CO/N=C(/C(=O)N[C@@H]1C(=O)N2C(C(=O)O)=C(COC(C)=O)CS[C@H]12)c1csc(N)n1	1.41	/
COc1ccc(CCNc2ncnc3onc(-c4ccc(Cl)cc4)c23)c(OC)c1	0.22	/
Nc1nc(N2CCOCC2)ncc1S(=O)(=O)c1ccc(Cl)cc1	/	-0.84
CC(=O)Nc1cccc(O)c1	1.48	/
CN(CCNC(=O)C1CCN(c2ccc(-c3cccs3)nn2)CC1)C1CCCCC1	1.08	/
Cc1c(C(=O)N2CC(C)CC(C)C2)sc2ncn(CC(=O)N3CCCCC3C)c(=O)c12 (stereo not drawn)	/	-1.28
CC(C)NC(=O)C1CCn2c(nc3ccccc32)C1 (stereo not drawn)	1.16	/
CCOc1ccc(OCC)c(NC(=O)C2=Cc3sc(C)c(C)c3CS2)c1	-0.54	/
CCc1ccc(S(=O)(=O)c2nnn3c2nc(NCC2CCCO2)c2cc(Cl)ccc23)cc1 (stereo not drawn)	-0.35	-1.77
CCC1Oc2ccc(S(=O)(=O)N3CCN(C(=O)c4sc(C)nc4C)CC3)cc2NC1=O (stereo not drawn)	-0.05	/
C=CCOc1ccc(C2c3c(oc4ccc(F)cc4c3=O)C(=O)N2CCOC)cc1 (stereo not drawn)	2.08	-2.89
CCOc1ccc(C(C)(C)C)cc1S(=O)(=O)n1cnc2ccccc21	0.37	-0.75
O=C(CCc1nnc2ccc(NCc3ccc(F)cc3)nn12)NCC1CCCO1 (stereo not drawn)	1.07	/
O=C(Cn1ncc2c1-c1ccccc1OC2)N1CCN(c2ccc(Cl)cc2)CC1	1.33	-0.87
CC(C)Oc1ccc(CNc2ccc3cc(S(=O)(=O)N4CCCC4)ccc3n2)cc1	1.54	/

Compounds from the list above that have a CF3 group:
SMILES	TAR Tat displ	CDC25B CDK2 inh
CCC(C)NC(=O)c1cnn2c(C(F)(F)F)cc(-c3cccs3)nc12 (stereo not drawn)	0.67	/
Nc1ccc(C(F)(F)F)cc1N	/	-3.46

Continued:
SMILES	TAR Tat displ	CDC25B CDK2 inh
O=C1c2ccccc2O[C@@H](c2ccccc2)[C@@H]1NC1CCCCC1	/	-1.97
CNC(=O)c1c(N)sc2c1CCCC2	-1.95	-1.1
CCCCSc1ncc(CO)n1Cc1ccc(F)cc1	0.49	/
CCOC(=O)c1nnn2c1nc(Sc1nc3ccccc3[nH]1)c1ccccc12	/	-1.39
CCc1nnc(SCC(=O)Nc2ccc(OC)c(OC)c2)c2cc3sccc3n12	2.1	/
COc1cc(C2c3c(oc4ccccc4c3=O)C(=O)N2c2nncs2)ccc1OCCC(C)C (stereo not drawn)	0.99	-0.94
CCCN(CCC)CCCNC(=O)c1sc2nc3n(c(=O)c2c1C)CCCC3	2.87	/
Cc1cn2c(=O)c(S(=O)(=O)N3CCCC3)c(C)nc2s1	-0.46	/
O=C(c1nn2c(c1Cl)NC(c1ccco1)CC2C(F)(F)F)N1CCN(c2ccc(F)cc2)CC1 (stereo not drawn)	/	0.2
Cc1nc2ccccc2c2nc(NC(=O)c3ccc4nsnc4c3)nn12	/	-1.8
CN(C)c1ccc(C(CNS(=O)(=O)c2ccc(F)cc2)N2CCOCC2)cc1 (stereo not drawn)	-1.43	/
CC1CCCN(c2ncnc3scc(-c4ccc(F)cc4)c23)C1 (stereo not drawn)	0.21	/
Cc1nnc(SCc2ccccc2Cl)c2cc3occc3n12	-0.98	/
CC(C)(C)c1ccc(C(=O)N(Cc2ccco2)C2CCS(=O)(=O)C2)cc1 (stereo not drawn)	1.94	1.09
CCn1c(=O)c(=O)n(CC(=O)O)c2ccccc21	-0.31	0.08
CCOC(=O)c1ccc(-n2c(CC)nc3c(C)csc3c2=O)cc1	/	-1.66
Cn1c(=O)n(C)c2cc(S(=O)(=O)Nc3cccc(Br)c3)ccc21	1.31	2.27
CCC(=O)N1CCc2cc(Br)cc(S(=O)(=O)NC(C)C)c21	/	-0.84
O=C(Nc1ccc(N2CCOCC2)cc1)c1cnc2ccccc2n1	/	-1.01
c1ccc2cc(Cn3c(CN4CCOCC4)nc4ccccc43)ccc2c1	0.1	0.47
Clc1cccc(CSc2nnc([C@@H]3CCCN3)o2)c1	0.71	2.06
O=S(=O)(NCCc1csc(-c2cccc(F)c2)n1)c1cccs1	2.12	/
COc1cc(C)nc2ccc(C(=O)O)cc12	0.1	-1.06
CN(C(=O)c1cc2ccc3cccnc3c2[nH]1)c1cccc(Cl)c1	0.43	/
Cc1cc2c(cc3c(SCc4ccccc4Cl)nncn32)o1	0.91	/
COc1ccc2c(c1)CCc1c-2n[nH]c1C(=O)N1CCN(C)CC1	0.22	/
Cc1cc(-c2nnc(SCC(=O)c3ccccc3)n2C)no1	/	-1.26
CCOC(=O)c1c(C)n(C)c2cc(-c3ccc(CC)cc3)c(O)cc12	0.58	-1.39
CC(=O)CC(=O)Nc1ccc(-c2ccc(NC(=O)CC(C)=O)c(C)c2)cc1C	/	-3.45
CSc1ccc(Cn2cccc2C2=NC(C(C)C)CO2)cc1 (stereo not drawn)	0.23	/
CC1(C)CC(=O)C2=C(C1)c1c(ccc3ncccc13)NC2c1cccc(O)c1 (stereo not drawn)	2.12	-1.05
COc1ccc(N2CCN(S(=O)(=O)c3ccc(OC)c(-c4nc(C(C)C)no4)c3)CC2)cc1	1.55	-2.26
Cc1c(-c2nc(-c3ccc(OS(=O)(=O)N(C)C)cc3)no2)oc2ccccc12	/	-1.32
Cn1ncc2c(Nc3ccc(F)cc3)nc(N3CCN(c4ccc(F)cc4)CC3)nc21	-0.69	/
CN(C(=O)c1ccc(Cl)cc1)C(c1cccs1)c1c[nH]c2ccccc12 (stereo not drawn)	2.59	2.18
O=C(CSc1ncnc2c1oc1ccccc12)Nc1ccc2c(c1)OCCO2	/	-1.55
CCN1CCC2(CC1)OC(=O)C(C)=C2C(=O)NCCN(C)C1CCCCC1	1.6	/
CCOC(=O)c1c(C)nc2n(C)c3ccccc3n12	0.49	-2.02
Cc1c(NC(=O)OCCNC(=O)Nc2ccccc2)sc(=S)n1C	0.43	1.11
COc1ccc(/C=C/c2nc(-c3ccc(Br)cc3)no2)cc1OC	1.45	2.48
CCC(C(=O)NCCc1cccs1)n1nc(C)c2sc3ccccc3c2c1=O (stereo not drawn)	1.5	-1.14
COc1cc(/C=N/n2c(C)nc3c(ncn3-c3ccccc3)c2=O)cc(OC)c1OC	/	-2.32
CC(C)Oc1ccccc1Cn1c(=O)sc2ccccc21	3.14	-0.64
O=C(NC1CCCCC1)C1COc2ccccc2C1 (stereo not drawn)	0.36	/
O=C(NCc1ccccc1)C1Sc2nnc(-c3ccccc3)n2NC1c1ccc(F)cc1 (stereo not drawn)	0.03	-1.88

Assay outcomes from PubChem BioAssay.
